High-throughput results (PubChem BioAssay)
Sa RN4220 lethal: S. aureus RN4220 growth inhibition. OD600, 16 h. inhibition, % (test concentration not listed). 330,000 tested, 0.33% active. AID 1259311;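 active = z-score of -3 or lower and OD600 up to 0.18 on both plates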;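 note: plate controls were untreated cells for no effect and reference antibiotic for full effect; stock transfer was 100 nL into about 80 µL; one replicate is shown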
Mtb hypoxia rep: inhibitors of hypoxia-regulated fluorescent reporter in Mycobacterium tuberculosis. AID 1159583. 300,000 tested, 0.1% active. M. tuberculosis hypoxia-regulated fluorescent reporter, fluorescence. fluorescence inhibition, % (concentration not given with the values);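 active = 35 to 45% if threefold the growth effect, above 45% if 1.5-fold the growth effect; inactive = the rest, general growth blockers included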;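 note: wells of about 50 µL received 100 nL stock; 0% = vehicle wells and 100% = reference inhibitor wells; whole bacteria with a GFP reporter of the hypoxia response; strong numbers were not always called active; many hits fall short of the cut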
BJeLR lethal: kills HRASV12-expressing BJeLR cells | AID 1554 | BJeLR (HRASV12) viability, CellTiter-Glo ATP luminescence, 48 h; reference of the scale not given here | inhibition, % (test concentration not listed) | 300,000 tested, 0.17% active;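 active = replicate mean above 50%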;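 note: 50 nL library stock added to about 25 µL; numbers are from one replicate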
PrP 5UTR inh: inhibition of PrP 5' UTR reporter expression. cell-based PrP 5' UTR mRNA reporter, plate reader. inhibition, % (no concentration beside the values). AID 488862. 340,000 tested, 0.35% active;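 active = every replicate at 50% or more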;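 note: 0 = median of the neutral control wells; tested in H4 reporter cells; numbers are from one replicate; inactives centre near -14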
ugtP null kill: growth inhibition of S. aureus ugtP deletion strain; S. aureus RN4220 ugtP deletion, OD600 growth, 16 h; some inactives read as strong as hits; growth inhibition, % (concentration not given with the values); 330,000 tested, 0.54% active;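 active = z-score under -3 and OD600 up to 0.15 on both plates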;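 note: plate controls were untreated wells for no effect and antibiotic for full effect; wells of about 80 µL received 100 nL stock; the first replicate is given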
Bead autofluor: compound fluorescence in toxin protease inhibitor counterscreen | 360,000 tested, 3.1% active | fluorescence intensity (test concentration not listed) | AID 624483 | compound autofluorescence counterscreen, microsphere flow cytometry; hits give high values;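 active = at least 3 SD above the mean of all compounds, about 16000 in these data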;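 note: 100 nL of 1 mM stock went into each well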
Mtb hypoxia rep growth: also measured in Mtb hypoxia rep; calls as there; growth inhibition, %; measured here: M. tuberculosis growth (absorbance);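 0% = vehicle and 100% = reference antibiotic; read after six days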
* marks the source's active call; other numbers are inactive results; nt = no result given. Rows were taken by chance; about 4% have a hit in one of these screens.

Start of the listing, in advance (11 entries):
Letter code – A = Sa RN4220 lethal; B = Mtb hypoxia rep; C = Mtb hypoxia rep growth; D = BJeLR lethal; E = PrP 5UTR inh; F = ugtP null kill; G = Bead autofluor
O=C(CCCN=C1NS(=O)(=O)c2ccccc21)OCc1ccc(F)cc1
  A = 1.3	B = 1	C = -4	D = 0	E = -15	F = 15	G = 5273

COC(CNC(=O)c1ccc2c(c1)ncn2C1CCCCCC1)OC
  A = 2.6	B = 2	C = 0	D = -11	E = -1	F = 10	G = 3810

Cc1ccc(-c2nnc(SCC(=O)N3CCOCC3)nc2-c2ccc(C)cc2)cc1
  A = -1.4	B = -3	C = -6	D = 2	E = -13	F = 6	G = 3680

Cc1cc(C)c2c(c1)OC(=O)CC2c1ccccc1C (configuration not stated)
  A = 4.5	B = 2	C = 4	D = nt	E = -8	F = 7	G = 3472

CC(=O)c1sc(=S)n(-c2ccc(Cl)cc2)c1C
  A = 3.8	B = 2	C = 16	D = -3	E = -4	F = 6	G = 3102

O=C(O)Cc1ccc(NC(=S)NCc2ccco2)cc1
  A = 1.4	B = 12	C = 9	D = -3	E = -5	F = 2	G = 2541

CC(C)CCC(O)(CCC(C)C)C(=O)NN1CCCCC1
  A = 5.5	B = -7	C = -6	D = 7	E = -37	F = 9	G = 2603

Cc1cccc(C(=O)N2CCC(=O)N(C(COCc3cccc(C(F)(F)F)c3)Cc3ccccc3)CC2)c1 (configuration not stated)
  A = 1.9	B = 20	C = 4	D = 0	E = -7	F = 8	G = 2967

Cc1cccc(C2C3C(=O)N(Cc4ccccc4)C(=O)C3[C@]3(CC(C)C)C(=O)N(c4cccc(F)c4)C(=O)N23)c1 (some centres not stated)
  A = 2.3	B = 15	C = 6	D = nt	E = nt	F = -17	G = nt

CN(CCc1ccccn1)S(=O)(=O)c1ccc2c3c(cccc13)C(=O)N2
  A = 3.1	B = nt	C = nt	D = -4	E = -13	F = 12	G = 3424

COC(=O)Nc1ccc(S(=O)(=O)N2CCC(C)CC2)cc1
  A = 9.1	B = 12	C = 11	D = 2	E = -17	F = -2	G = 10998

The listing, previewed entries included:
Letter code – A = Sa RN4220 lethal; B = Mtb hypoxia rep; C = Mtb hypoxia rep growth; D = BJeLR lethal; E = PrP 5UTR inh; F = ugtP null kill; G = Bead autofluor
O=C(CCCN=C1NS(=O)(=O)c2ccccc21)OCc1ccc(F)cc1
  A = 1.3	B = 1	C = -4	D = 0	E = -15	F = 15	G = 5273

COC(CNC(=O)c1ccc2c(c1)ncn2C1CCCCCC1)OC
  A = 2.6	B = 2	C = 0	D = -11	E = -1	F = 10	G = 3810

Cc1ccc(-c2nnc(SCC(=O)N3CCOCC3)nc2-c2ccc(C)cc2)cc1
  A = -1.4	B = -3	C = -6	D = 2	E = -13	F = 6	G = 3680

Cc1cc(C)c2c(c1)OC(=O)CC2c1ccccc1C (configuration not stated)
  A = 4.5	B = 2	C = 4	D = nt	E = -8	F = 7	G = 3472

CC(=O)c1sc(=S)n(-c2ccc(Cl)cc2)c1C
  A = 3.8	B = 2	C = 16	D = -3	E = -4	F = 6	G = 3102

O=C(O)Cc1ccc(NC(=S)NCc2ccco2)cc1
  A = 1.4	B = 12	C = 9	D = -3	E = -5	F = 2	G = 2541

CC(C)CCC(O)(CCC(C)C)C(=O)NN1CCCCC1
  A = 5.5	B = -7	C = -6	D = 7	E = -37	F = 9	G = 2603

Cc1cccc(C(=O)N2CCC(=O)N(C(COCc3cccc(C(F)(F)F)c3)Cc3ccccc3)CC2)c1 (configuration not stated)
  A = 1.9	B = 20	C = 4	D = 0	E = -7	F = 8	G = 2967

Cc1cccc(C2C3C(=O)N(Cc4ccccc4)C(=O)C3[C@]3(CC(C)C)C(=O)N(c4cccc(F)c4)C(=O)N23)c1 (some centres not stated)
  A = 2.3	B = 15	C = 6	D = nt	E = nt	F = -17	G = nt

CN(CCc1ccccn1)S(=O)(=O)c1ccc2c3c(cccc13)C(=O)N2
  A = 3.1	B = nt	C = nt	D = -4	E = -13	F = 12	G = 3424

COC(=O)Nc1ccc(S(=O)(=O)N2CCC(C)CC2)cc1
  A = 9.1	B = 12	C = 11	D = 2	E = -17	F = -2	G = 10998

CN(C(=O)COC(=O)CNC(=O)c1cccs1)c1c(N)n(Cc2ccccc2)c(=O)[nH]c1=O
  A = 2.4	B = 4	C = 3	D = nt	E = -41	F = 0	G = 3555

CCn1c(/N=C/c2c[nH]c3ccccc23)nc2ccccc21
  A = nt	B = nt	C = nt	D = -2	E = -14	F = nt	G = 10726

CCCCn1c(SCC(=O)c2ccc(O)c(O)c2)nc2ccsc2c1=O
  A = 12	B = 3	C = -3	D = -1	E = -20	F = -7	G = 2585

O=C(NNC(=O)c1ccc(Oc2ccc(C3SCCS3)cc2)o1)c1ccc(Cl)cc1
  A = 3.5	B = 9	C = -9	D = -6	E = -24	F = 4	G = 4091

CCCC(C)c1nnc(NC(=O)CS(=O)(=O)Cc2ccccc2)s1 (configuration not stated)
  A = 18	B = 7	C = 3	D = 5	E = -8	F = 31	G = 3133

COc1ccc2cc(CN(CC3CCCO3)C(=S)Nc3ccccc3)c(=O)[nH]c2c1 (configuration not stated)
  A = 2.1	B = 9	C = 15	D = -1	E = -30	F = 13	G = 3576

CC(NC(=O)COC(=O)c1cccs1)c1ccccc1 (configuration not stated)
  A = 2.1	B = -6	C = -3	D = 4	E = 6	F = 0	G = 4604

Cc1cc(NC(=O)c2noc3c2CCc2ccccc2-3)no1
  A = -8.2	B = 2	C = 0	D = 0	E = -20	F = -5	G = 4312

Cc1ccc(C)c(N(C)C(=O)c2cc3c(=O)[nH]c4ccc(C)cc4c3s2)c1
  A = 1.6	B = 10	C = 5	D = -2	E = -25	F = 2	G = 4262

CC(=O)Nc1cccc(OCC(=O)Nc2sccc2C(N)=O)c1
  A = 2.0	B = -3	C = -1	D = 6	E = -18	F = -8	G = 4529

CC1CN(C(=O)CSc2nnc(NC(=O)NC(C)(C)C)s2)CC(C)O1 (configuration not stated)
  A = 1.8	B = 3	C = 4	D = 4	E = -8	F = 2	G = nt

C=C(C)CC(Nc1ccc(OC)cc1)c1ccco1 (configuration not stated)
  A = 8.6	B = 1	C = 0	D = -1	E = -32	F = 3	G = 4408

CCOC(=O)N1CCN(S(=O)(=O)c2ccc(C(=O)NNc3nc4cc(C)cc(C)c4s3)cc2)CC1
  A = nt	B = nt	C = nt	D = 11	E = 1	F = nt	G = 4285

Cc1cc(C(=O)NCC(C)C)c2ccccc2n1
  A = 2.3	B = nt	C = nt	D = 11	E = -27	F = 3	G = 3021

Cc1ccc(NC(=O)C(=O)NCCCN2CC(C(=O)O)CC2=O)cc1 (configuration not stated)
  A = 4.3	B = -5	C = -3	D = 13	E = -5	F = 4	G = 6015

CC(=NNC(=O)c1cc(Br)ccc1O)C(=NO)C(=O)Nc1ccccc1
  A = 37	B = 8	C = 4	D = nt	E = nt	F = 17	G = nt

COc1cccc(NC(=O)c2ccc(NCCCN3CC(C)CC(C)C3)c([N+](=O)[O-])c2)c1 (configuration not stated)
  A = 3.7	B = -4	C = 10	D = -10	E = -8	F = 4	G = 4538

CC12CCC(C(=O)NCc3ccc4c(c3)OCO4)(OC1=O)C2(C)C (configuration not stated)
  A = 3.7	B = nt	C = nt	D = -3	E = -13	F = 7	G = 3612

CC(C)c1ccc(NC(=O)Cn2ncc3ccccc32)cc1
  A = -3.6	B = 9	C = 5	D = -8	E = -52	F = 15	G = 3083

COc1ccccc1C1=CC(=O)CC(c2ccc(F)cc2)C1 (configuration not stated)
  A = -0.2	B = 23	C = 9	D = nt	E = nt	F = 6	G = nt

Cc1cc(C)c2cc(C#N)c(SCC(=O)NCc3ccco3)nc2c1
  A = 1.5	B = nt	C = nt	D = -11	E = -25	F = 5	G = 4358

N#C/C(C(=O)NCc1ccco1)=C1/SC(Cc2ccc(F)cc2)C(=O)N1c1ccccc1 (configuration not stated)
  A = -0.6	B = nt	C = nt	D = nt	E = -17	F = -2	G = 2777

COc1ccccc1CCNC(=O)C(=O)NCC1OCCN1S(=O)(=O)c1ccc(Cl)cc1 (configuration not stated)
  A = -8.5	B = 7	C = 5	D = 2	E = -23	F = 7	G = 7381

Cc1nc(N)c(C#N)c(-c2ccccc2Cl)c1C
  A = 7.2	B = 9	C = 6	D = -2	E = 8	F = 11	G = 2621

CN1C(=O)N(c2cccc3ccccc23)C(n2cncn2)C1(C)C (configuration not stated)
  A = 5.1	B = nt	C = nt	D = 5	E = -13	F = 12	G = 3500

O=C(C1CCN(Cc2ccc(F)cc2)CC1)N1CCN(C/C=C/c2ccccc2)CC1
  A = -2.0	B = 10	C = 9	D = 0	E = -4	F = -2	G = 4656

Cc1ccc2c(c1)nnn2C1CCN(CC(=O)N2CCN(c3ccc(F)cc3)CC2)CC1
  A = 7.5	B = 6	C = 9	D = -4	E = -10	F = 0	G = 4498

CC(C)c1ccc(N2CCN(C(=O)c3ccccc3NC(=O)/C=C\C(=O)O)CC2)cc1
  A = 1.8	B = nt	C = nt	D = 2	E = -15	F = 3	G = 4503

O=C(NCc1ccccn1)Nc1ccc(Cl)cc1
  A = 0.9	B = 11	C = 0	D = -2	E = -21	F = 0	G = 4367

COc1ccc2cc(C(=O)C3CCCN(C(=O)c4csnn4)C3)ccc2c1 (configuration not stated)
  A = 38	B = 6	C = 17	D = -5	E = -13	F = 6	G = 3043

N#C/C(=C\c1cc(Br)ccc1F)C(=O)NC1CC1
  A = 6.8	B = 15	C = 12	D = -3	E = 3	F = 4	G = 6741

O=C(CN(CC1CCCO1)C(=O)CNS(=O)(=O)c1ccccc1)NCc1ccco1 (configuration not stated)
  A = 6.6	B = 12	C = 10	D = -9	E = 0	F = 6	G = 4080

c1ccc(CSc2ccc3nnc(-c4ccccn4)n3n2)cc1
  A = 9.2	B = -4	C = -2	D = 1	E = -8	F = 6	G = 4257

CNC(=S)N(CCc1c(C)[nH]c2ccccc12)Cc1cc(OC)c(OC)c(OC)c1
  A = 7.2	B = 5	C = 4	D = -1	E = -13	F = 1	G = 4383

Filtered by structure, those above containing bromine.
Letter code – A = Sa RN4220 lethal; B = Mtb hypoxia rep; C = Mtb hypoxia rep growth; D = BJeLR lethal; E = PrP 5UTR inh; F = ugtP null kill; G = Bead autofluor
CC(=NNC(=O)c1cc(Br)ccc1O)C(=NO)C(=O)Nc1ccccc1
  A = 37	B = 8	C = 4	D = nt	E = nt	F = 17	G = nt

N#C/C(=C\c1cc(Br)ccc1F)C(=O)NC1CC1
  A = 6.8	B = 15	C = 12	D = -3	E = 3	F = 4	G = 6741

Further records
Letter code – A = Sa RN4220 lethal; B = Mtb hypoxia rep; C = Mtb hypoxia rep growth; D = BJeLR lethal; E = PrP 5UTR inh; F = ugtP null kill; G = Bead autofluor
CCCCC(=O)N/N=C/c1c(O)n(CCCC)c(=S)[nH]c1=O
  A = 1.9	B = -5	C = 4	D = -5	E = -1	F = 3	G = 3660

CC(C)C(C(=O)O)N(Cc1cccc(CN(C(C(=O)O)C(C)C)S(C)(=O)=O)c1)S(C)(=O)=O (configuration not stated)
  A = 6.1	B = 2	C = 9	D = nt	E = nt	F = 1	G = nt

O=C(CN(C(=O)CCC(=O)Nc1nccs1)c1ccccc1F)NCc1ccc2c(c1)OCO2
  A = 3.6	B = 0	C = -1	D = -3	E = -9	F = 5	G = 5386

COc1ccc(C2(CNC(=O)c3ccccc3)CCOCC2)cc1
  A = 2.9	B = 8	C = 5	D = -4	E = nt	F = 5	G = 6601

CC(=O)NCCC(=O)Nc1ccc(C)c(F)c1
  A = -1.8	B = 7	C = 6	D = 8	E = -19	F = -3	G = 8770

Cc1nnc(SCc2cnc(-c3ccc(C(C)C)cc3)s2)n1C
  A = -0.4	B = 4	C = 12	D = nt	E = 6	F = 14	G = 9328

CCOc1cc(NC(=O)c2ccccc2OC)c(OCC)cc1NC(=O)c1ccccc1
  A = 6.6	B = 4	C = 5	D = 3	E = -4	F = -2	G = 3671

Cc1c(C)n(C)c2ccc(C(=O)NCCCN3CCCCC3C)cc12 (configuration not stated)
  A = -0.2	B = 1	C = 0	D = 3	E = -11	F = 2	G = 8392

Cc1ccccc1NS(=O)(=O)c1cc2c(cc1C)N(C)CCO2
  A = -5.9	B = 8	C = 3	D = 15	E = -21	F = -1	G = 5557

Cc1ccc(-c2nc3ccccc3c(=O)n2O)cc1
  A = 5.2	B = 10	C = 10	D = 1	E = -20	F = 0	G = 2943

CCOC(=O)N1CCN(C(=O)C2CCN(Cc3cccc(OCc4ccccc4)c3)CC2)CC1
  A = -2.4	B = 2	C = 8	D = -4	E = -7	F = 4	G = 2591
